# B2AR ag – beta2AR agonists driving receptor internalization, primary screen, cell-based, FAP fluorogen, flow cytometry; Am2.2-beta2AR cells; reference of the scale not given here; response, % (concentration not given with the values); Beta-2 adrenergic receptor (Homo sapiens), P07550; 340,000 tested, 0.43% active;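 active = response above a set limit, near 3 SD of response in nonfluorescent compounds, cut at about 42% in these data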;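 note: stock transfer was 100 nL into about 11 µL; a reference agonist was the positive control; negative values mostly stem from fluorescent compounds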
# Target sequence (P07550 whole entry, looked up): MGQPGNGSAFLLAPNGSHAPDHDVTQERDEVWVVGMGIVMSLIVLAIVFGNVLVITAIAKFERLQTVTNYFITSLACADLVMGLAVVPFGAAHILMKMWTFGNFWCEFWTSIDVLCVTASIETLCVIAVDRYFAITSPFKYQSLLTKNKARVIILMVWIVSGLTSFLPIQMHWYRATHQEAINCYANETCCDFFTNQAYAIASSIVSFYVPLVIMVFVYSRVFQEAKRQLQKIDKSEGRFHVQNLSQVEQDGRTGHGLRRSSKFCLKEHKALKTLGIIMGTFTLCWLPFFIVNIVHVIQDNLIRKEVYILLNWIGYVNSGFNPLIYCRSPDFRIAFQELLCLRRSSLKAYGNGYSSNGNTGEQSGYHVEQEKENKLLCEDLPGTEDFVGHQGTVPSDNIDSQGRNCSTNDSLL
# HNF4A DNA FP – change in binding of human HNF4A to DNA, primary screen, biochemical, fluorescence polarization, FITC-DNA; Hepatocyte nuclear factor 4-alpha (Homo sapiens), P41235; 1 h; activity change, % at 10 µM; 360,000 tested, 0.3% active; AID 1224865, 2016; in the data active = activity change above about 30%, passing the limit was not always enough;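 note: controls were the assay level and a saturating level of protein; the project sought stronger binding though the title names inhibitors; some compounds called inactive have numbers as strong as hits; positive values seem to mean higher polarization but the record does not say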
# E coli growth – E. coli growth inhibition, primary screen, OD600; Escherichia coli growth, 23 h; hits give low values; OD600 absorbance (concentration not given with the values); 330,000 tested, 0.21% active;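 active = OD600 absorbance below the run mean of sample wells minus 3.6 SD, in any replicate, cut at about 0.56 in these data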;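 note: stock transfer was 300 nL into about 60 µL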
# FGF22 binding – binders of human FGF22 protein, primary screen, FGF22 synaptogenesis inhibitor project, biophysical, thermal shift, single point; Fibroblast growth factor 22 (Homo sapiens), Q9HCT0; recombinant FGF22 thermal shift, SYPRO orange fluorescence; percent of sucrose octasulfate shift, DMSO zero; calls only at 9.99 µM; 340,000 tested, 1.5% active; AID 651658, 2012;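 active = melting point raised past a set limit in the mean and every replicate; inconclusive = no clear call; three in four hits are not shown here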
# Target sequence (Q9HCT0 whole entry, looked up): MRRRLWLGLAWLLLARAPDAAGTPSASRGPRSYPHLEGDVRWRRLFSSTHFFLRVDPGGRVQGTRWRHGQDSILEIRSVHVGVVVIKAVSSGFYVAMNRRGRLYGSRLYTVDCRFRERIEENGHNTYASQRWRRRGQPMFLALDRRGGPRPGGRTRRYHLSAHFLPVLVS
# ALR inh – inhibitors of human ALR sulfhydryl oxidase, primary screen, biochemical, H2O2 detection, HRP-luminol luminescence, single point | inhibition, % (no concentration beside the values) | 290,000 tested, 3.8% active | FAD-linked sulfhydryl oxidase ALR (Homo sapiens), P55789 | purified ALR, DTT oxidation;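 active = mean and each replicate at 75% or more; inconclusive = only one of the two met; inactive = neither met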;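 note: stock transfer was 7.5 nL into about 7.5 µL; 0% = neutral wells and 100% = wells with inactivated enzyme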
# Target sequence (P55789 whole entry, looked up): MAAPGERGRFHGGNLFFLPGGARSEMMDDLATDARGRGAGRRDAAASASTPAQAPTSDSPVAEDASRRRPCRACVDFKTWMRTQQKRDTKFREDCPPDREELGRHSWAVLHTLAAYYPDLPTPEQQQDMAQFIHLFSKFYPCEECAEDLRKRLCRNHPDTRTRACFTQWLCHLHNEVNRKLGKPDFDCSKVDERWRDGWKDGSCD
# Ecoli rRNA inh – reduced GFP signal of wild-type E. coli, primary screen, bacterial rRNA inhibitor project, GFP/RFP fluorescence, OD600, single point; GFP signal change (wild-type ribosome), % (test concentration not listed); E. coli WT GFP vs humanized-ribosome RFP mutants, 24 h; hits give low values; DMSO median 0, no signal -100; 350,000 tested, 1.6% active; AID 720706, 2013;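 active = significant combined selectivity score with lowered wild-type GFP, culture density cut under 30%, mutant RFP and density less affected; inactive = any of these conditions unmet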; note: one replicate is shown; some compounds called inactive have numbers as strong as hits
# UCH37 DUB inh – inhibitors of human UCH37 deubiquitinase, primary screen, biochemical, Ub-AMC cleavage, fluorescence | inhibition, % (no concentration beside the values) | 330,000 tested, 0.33% active | purified proteasome/UCH37 | Ubiquitin carboxyl-terminal hydrolase isozyme L5 (Homo sapiens), Q9Y5K5;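 active = mean of two replicates above 20%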;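 note: 0% = compound-free wells with enzyme and 100% = wells lacking proteasome; stock transfer was 100 nL into about 20 µL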
#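 Material: human UCH37 enzyme supplied as purified proteasome complex / Amount: 0.15 nM proteasome as dispensed / Buffer or medium: pH 7.4 Tris-HCl (50 mM) with ovalbumin, ATP-MgCl2, DTT / Times: preincubation 30 min, reaction 25 min, room temperature / Technique: AMC fluorescence from Ub-AMC cleavage, excitation 355 nm, emission 460 nm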
# Ecoli rRNA inh OD600 – second read-out of Ecoli rRNA inh, no call of its own (marks repeat the call); OD600 change, %; measured here: OD600 growth;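 optical density of the mix in the first replicate; 0 = DMSO median and -100 = no signal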
# Ecoli rRNA inh RFP – recorded beside Ecoli rRNA inh, whose call it bears; RFP signal change, %; measured here: RFP humanized mutant strains;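 first replicate; 0 = DMSO median and -100 = no signal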
# Numbers without * were called inactive; i = inactive; ? = inconclusive; . = no result given.
SMILES,B2AR ag,HNF4A DNA FP,E coli growth,FGF22 binding,ALR inh,Ecoli rRNA inh,Ecoli rRNA inh OD600,Ecoli rRNA inh RFP,UCH37 DUB inh
N#CC1=C(SCc2ccccc2)NC(=O)CC1c1ccccc1 (stereo unspecified),6,-1.6,0.71,.,-5,.,.,.,2.9
Cc1ccc(NC(=O)COCC(=O)Nc2ccc(C)cc2)cc1,5,0.1,0.68,i,-3,1,5,1.8,2.9
CCCCN(CC)C(=O)c1oc2ccc(S(=O)(=O)N3CCCC3)cc2c1C,-10,3.4,0.72,i,.,-2,-20,6.7,4.6
COC(=O)C1=C(C)N(CCCC(=O)O)C(=O)NC1c1ccc([N+](=O)[O-])cc1 (stereo unspecified),-6,-2.5,0.66,i,-1,6,12,-6.4,3.7
COc1ccc(-n2cnc3scc(-c4ccc(OC)c(OC)c4)c3c2=O)cc1,5,4.2,0.68,i,-4,8,16,-1.2,1.2
O=C(c1ccc(OC2CCN(C/C=C/c3ccc(F)cc3)CC2)cc1)N1CCCCC1,12,6.7,0.67,i,-3,1,1,9.7,0.6
COc1ccccc1N1C(=O)CC(N2CCc3ccccc32)C1=O (stereo unspecified),4,2.8,0.7,.,41,.,.,.,3.3
Nc1cccc(C2=Nc3cccc4cccc(c34)N2)c1,-1,1.2,0.7,.,-33,.,.,.,6.3
COC(=O)c1sccc1NC(=O)Nc1cccc(OC)c1,-4,2.2,0.69,i,-2,.,.,.,-3.0
COc1ccc(N(C(=O)/C=C/c2ccccc2)C2=CC3CCC(C2)N3C)cc1 (stereo unspecified),-19,-2.9,0.69,i,-9,-2,2,-9.1,3.2
CCOc1ccc(/C=N/NC(=O)c2ccc(O)cc2)cc1CN1CC2CC(C1)c1cccc(=O)n1C2 (stereo unspecified),1,1.2,.,i,19,-16,-14,2.7,.
Cc1cccc(C(=O)NCC(=O)N2CCOCC2)c1,3,-3.3,0.68,i,-18,5,4,1.2,-2.7
Cc1nn(C)c(Cl)c1CN1CCCC(CCC(=O)NCc2ccccc2F)C1 (stereo unspecified),-1,-3.1,0.65,i,-16,19,9,0.8,2.1
CCOC(=O)c1ccc(S(=O)(=O)Nc2cc(S(=O)(=O)Nc3ccc(OC)cc3)ccc2O)cc1,1,-0.7,0.69,i,?,-22,-55,-0.7,3.9
Cc1cc(C)nc(SCc2cc(=O)c(OC(=O)c3ccc(S(=O)(=O)N(C)C)cc3)co2)n1,0,4.1,0.7,.,24,.,.,.,0.2
CC(C)CNC(=O)c1nn(Cc2ccccc2)c(=O)c2ccccc12,-9,-1.3,0.71,i,.,2,3,0.6,4.3
O=C(C1=C[C@@H](c2coc3ccccc3c2=O)C[C@@H](OCCCCO)O1)N1CCN(Cc2ccc3c(c2)OCO3)CC1,-1,0.8,.,i,0,-17,-14,25,3.4
CCC(COC)Oc1cc(NCc2ccccc2)c2ncn(C(C)C)c2c1 (stereo unspecified),4,2.2,0.68,i,83*,8,2,8.0,7.8
Cc1cccnc1NC(=O)CNC(=O)c1cccs1,3,-1.2,0.69,i,-11,-2,2,-1.6,0.2
CCOc1ccccc1N(CC(=O)NC1CCCCC1)S(=O)(=O)c1ccc(C)cc1,2,0.9,0.67,i,-4,-11,-34,-3.2,1.6
CCc1cccc(CC)c1NC(=O)COC(=O)CC1c2ccccc2CCN1S(=O)(=O)c1ccccc1 (stereo unspecified),3,-3.6,0.72,i,-16,-12,-9,12,2.1
COc1ccc2c(c1)N(S(=O)(=O)c1ccccc1)CCC2=O,2,6.2,0.68,.,-3,.,.,.,-3.6
COc1ccc(C)cc1Nc1n[n+](-c2ccccc2)c(-c2c(Cl)cccc2Cl)s1,.,.,.,i,9,-56,-76,-28,6.4
COc1cccc(/C=N/Nc2ncnc3scc(-c4ccccc4)c23)c1OC,0,-0.3,.,i,-10,-26,-14,12,.
O=C(COC(=O)/C=C/c1ccc(Cl)cc1)NC1CCCCCC1,44*,3.0,0.71,i,.,.,.,.,3.9

# An excerpt from above in order of the ALR inh value, smallest number first:
molecule | ALR inh
Cc1cccnc1NC(=O)CNC(=O)c1cccs1 | -11
COc1cccc(/C=N/Nc2ncnc3scc(-c4ccccc4)c23)c1OC | -10
COc1ccc(N(C(=O)/C=C/c2ccccc2)C2=CC3CCC(C2)N3C)cc1 (stereo unspecified) | -9
CCOc1ccccc1N(CC(=O)NC1CCCCC1)S(=O)(=O)c1ccc(C)cc1 | -4
O=C(c1ccc(OC2CCN(C/C=C/c3ccc(F)cc3)CC2)cc1)N1CCCCC1 | -3
CCC(COC)Oc1cc(NCc2ccccc2)c2ncn(C(C)C)c2c1 (stereo unspecified) | 83*

# Going on with the list:
SMILES,B2AR ag,HNF4A DNA FP,E coli growth,FGF22 binding,ALR inh,Ecoli rRNA inh,Ecoli rRNA inh OD600,Ecoli rRNA inh RFP,UCH37 DUB inh
CCN(CC(=O)Nc1ccc(OC)cc1)C(=O)c1ccc(NS(=O)(=O)c2ccc(C(C)=O)cc2)cc1,1,-2.2,0.64,i,.,9,9,2.4,3.8
C(=C\c1ccccc1)/CSc1nnc(-c2ccccn2)n1Cc1ccco1,9,1.7,.,.,15,-7,-24,6.5,4.1
CCCN(CC(=O)Nc1ccc(Cl)cc1Cl)C(=O)/C=C/c1ccco1,-9,0.8,.,i,-1,-17,-28,7.1,.
CC[C@@]1(C(=O)OC)N[C@H](CN(C)C(=O)NC(C)C)[C@@H]2C(=O)N(Cc3ccccc3)C(=O)[C@@H]21,-4,-2.3,0.68,i,.,9,6,1.2,2.3
C#CCOCCOCCOCCNc1nc(N2CCN(C(=O)[C@H]([C@@H](C)O)n3cc(CCCCN)nn3)CC2)nc(N2CCN(C(=O)[C@H](CCCCN)n3cc(CC(C)O)nn3)CC2)n1 (stereo partly specified),6,-3.9,0.75,i,.,9,7,15,2.2
Cc1ccc(OCC(=O)NC2CC(C)(C)NC(C)(C)C2)c(C)c1,4,2.3,.,i,-19,13,13,-0.9,.
COc1ccc(N2CCN(C(=O)CSc3nnc(-c4cc5ccccc5cc4O)n3C)CC2)cc1,2,5.3,0.74,.,8,.,.,.,3.6
COc1ccccc1NC(=O)c1ccc(NC(=O)COC(=O)C2CC2C)cc1 (stereo unspecified),-10,1.2,.,.,-11,.,.,.,.
COc1ccc(-c2csc(COC(=O)C(C)(C)C)n2)cc1,0,22,0.67,i,-15,-7,-3,3.5,4.3
CCCNC(=O)C1(C)CCN(C(=O)c2ccc3c(c2)CCO3)C1 (stereo unspecified),.,-4.8,.,i,.,7,23,-7.3,.
COc1ccc(S(=O)(=O)N2CCOCC2)cc1NC(=O)c1cccc2c(=O)c(C)c(-c3ccccc3)oc12,14,0.5,0.69,i,0,13,0,1.2,-8.5
CC1CC(C)CN(S(=O)(=O)N2CCCC(C(=O)NC3CCCCC3)C2)C1 (stereo unspecified),0,-2.1,0.69,i,-5,3,5,-0.7,-1.6
O=C(COC(=O)c1cc(NS(=O)(=O)c2cccs2)ccc1O)Nc1ccc(F)c(F)c1F,1,-4.0,0.66,i,10,-8,-7,1.4,-16
O=S(=O)(c1ccc(F)cc1)N1CCN(CC2CC3C=CC2C3)CC1 (stereo unspecified),4,0.8,0.65,i,3,3,-9,-1.8,1.3
C=CCOc1ccccc1CN1CCC(Cc2ccccc2)CC1,7,0.1,0.6,i,.,-10,-13,0.9,2.0
O=C(CN(C(=O)c1csnn1)c1ccc(F)c(Cl)c1)NCc1ccc2c(c1)OCO2,-4,-1.7,0.71,i,-4,3,15,-1.0,3.4
CCCN1Cc2cccc(C(=O)NC(CC(=O)OCC)c3ccc(C)cc3)c2C1=O (stereo unspecified),-8,2.4,0.71,i,4,-11,-5,1.3,4.7
CCNC(=O)C(=O)NCC1CCCN1S(=O)(=O)c1cccs1 (stereo unspecified),-2,0.0,0.62,i,-5,3,5,-1.9,-1.7
Cc1cc(C)nc(NN=CC2=C(N3CCOCC3)/C(=C/c3ccc(Cl)cc3)CC2)n1,10,10,0.71,i,.,0,17,4.9,-6.1
Cc1nn(CC#N)c(=O)n1-c1ccc(C(C)C)cc1,-1,6.6,0.69,i,-6,5,0,-1.0,5.0
COc1ccccc1N(C(=O)c1ccco1)C(C(=O)NC1CCCC1)c1ccc(N2CCOCC2)cc1 (stereo unspecified),8,-0.9,.,i,-2,1,7,0.3,.
C/C(=N\Nc1ccc(Cl)c(C(=O)O)c1)c1ccc[nH]1,3,-11,.,i,?,1,6,9.3,.
CCOCCn1c(=O)c2c(nc3n2CCCN3CCc2ccccc2)n(C)c1=O,-18,-4.1,0.61,i,2,-4,-1,-3.3,3.7
COc1ccc(NC(=O)CSc2nnc(-c3cccc(O)c3)o2)cc1,2,0.2,0.7,i,.,1,3,-1.3,4.4
Cn1cnnc1-c1cccc(NS(=O)(=O)c2ccc(N3CCCC3=O)cc2)c1,-13,3.2,0.69,i,-1,12,4,0.7,3.4

# Complete entries, quoted from the list:
# COc1ccc(S(=O)(=O)N2CCOCC2)cc1NC(=O)c1cccc2c(=O)c(C)c(-c3ccccc3)oc12 across the screens: B2AR ag: 14; HNF4A DNA FP: 0.5; E coli growth: 0.69; FGF22 binding: i; ALR inh: 0; Ecoli rRNA inh: 13; Ecoli rRNA inh OD600: 0; Ecoli rRNA inh RFP: 1.2; UCH37 DUB inh: -8.5
# Cc1nn(CC#N)c(=O)n1-c1ccc(C(C)C)cc1 across the screens: B2AR ag: -1; HNF4A DNA FP: 6.6; E coli growth: 0.69; FGF22 binding: i; ALR inh: -6; Ecoli rRNA inh: 5; Ecoli rRNA inh OD600: 0; Ecoli rRNA inh RFP: -1.0; UCH37 DUB inh: 5.0

# Going on with the list.
SMILES,B2AR ag,HNF4A DNA FP,E coli growth,FGF22 binding,ALR inh,Ecoli rRNA inh,Ecoli rRNA inh OD600,Ecoli rRNA inh RFP,UCH37 DUB inh
CCOC(=O)[C@@H]1[C@H]2COc3cc(OC)ccc3[C@@H]2N2C(=O)N(c3ccccc3)C(=O)[C@]12C,-4,1.5,0.8,i,4,-2,-5,-6.8,1.3
COc1ccc(/C(C)=N/NC(=O)c2ccccc2OCc2ccccc2)c(OC)c1,-8,-0.9,.,i,2,-33,-41,-6.8,.
Nc1cc(Cl)ccc1Nc1ccncc1,-4,-2.3,0.68,i,65,11,16,1.3,3.9
CC(C)CCn1c(COc2ccccc2)nn(CCC#N)c1=S,1,-1.4,0.69,i,-2,2,0,2.0,2.1
Cc1ccc(Cl)cc1NC(=S)Nn1cnnc1,-1,4.1,0.67,i,-1,8,7,0.2,0.3
CCN(c1ccc(NC(=O)COC(=O)/C=C/c2ccco2)cc1)C(C)C,9,1.6,0.71,i,99*,1,-19,1.6,5.1
CCN(CC)C(=O)COc1ccc2c(-c3ccccc3)cc(=O)oc2c1,-3,-4.1,0.67,i,-15,-16,-25,-0.8,2.6

# This is a subset (hit frequency here may not be typical).
